Screens (PubChem)
WNV protease inh = WNV NS2B-NS3 proteinase inhibition | WNV NS2B-NS3 protease, fluorogenic substrate Ex360/Em465; active compounds read low | 65,000 tested, 0.18% active | P06935 | z-score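 (tested at a level between 10 and 100 µM)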 | AID 577;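 active = z-score at -3 or under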;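 also: score is relative to mean and spread of the compound wells of a plate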
Target sequence (P06935 1371-1501 limits assumed): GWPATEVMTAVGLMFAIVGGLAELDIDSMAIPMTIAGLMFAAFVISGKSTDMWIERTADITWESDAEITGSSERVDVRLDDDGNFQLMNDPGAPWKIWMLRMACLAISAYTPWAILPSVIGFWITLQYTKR
Target sequence (P06935 1502-1679 limits assumed): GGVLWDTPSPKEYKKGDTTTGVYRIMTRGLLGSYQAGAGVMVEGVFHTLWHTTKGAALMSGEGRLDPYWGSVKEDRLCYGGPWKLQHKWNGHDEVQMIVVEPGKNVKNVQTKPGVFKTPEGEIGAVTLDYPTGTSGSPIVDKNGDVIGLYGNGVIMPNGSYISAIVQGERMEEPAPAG
MT1-MMP reporter = MT1-MMP gene expression reporter suppression – cell-based, luciferase reporter, luminescence (AID 618); MT1-MMP promoter luciferase reporter cells, luminescence; calls from a first round at 10 µM; hits with a dose series show EC50 in µM; 87,000 tested, 0.62% active;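 active = over half of the reporter light lost at 10 µM or EC50 under 50 µM; inactive = the rest and hits that failed the dose series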;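 also: actives suppress MT1-MMP promoter-driven transcription so potencies describe inhibitors; HT1080 fibrosarcoma cells; overnight exposure; toxic or luciferase-blocking compounds were not removed from the actives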
Hsc70 = Hsc70 inhibitors, probe displacement, primary screen, biochemical, fluorescence polarization (AID 568) | Hsc70 fluorescence polarization, probe displacement; higher % means a stronger effect; strong numbers were not always called active | displacement, % at 20 µM; hits with a dose series show IC50 in µM | 83,000 tested, under 10 active;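 active = displacement above 50% without optical interference and an IC50 on retest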;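 also: ATPase domain with a fluorescein-tagged ATP probe; 0% = vehicle and 100% = excess ADP; read after one hour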
Starred values were filed as active, the others as inactive; i = inactive; · = no result given. Only part of the results is shown (hit frequency here may not be typical).

Structure,WNV protease inh,MT1-MMP reporter,Hsc70
CCOc1ccc(CN2CCCN(C)CC2)cc1,·,i,-2.2%
COC(=O)CCc1n[nH]c(=O)[nH]c1=O,-0.2,i,-3.2%
COc1cccc(Cn2c(Oc3ccccc3)nc3c2c(=O)n(C)c(=O)n3C)c1,-0.97,i,-0.6%
CC(C(=O)Nc1ccccc1C(=O)N1CCCC1)n1nnc2ccccc21 (stereo not given),1,i,-4.8%
Cc1ccc(N2C(=O)N(CC(=O)N(C)Cc3ccccc3)C(=O)C2C)cc1 (stereo not given),·,i,-0.4%
O=C(NCCOCC(F)(F)C(F)F)c1cc(F)c(F)cc1Cl,-0.26,i,1.0%
O=C(CNCC1CCCCC1)Nc1ccccc1N1CCCCC1,·,i,-1.1%
Cc1cc(C)c(C(=O)COC(=O)Cn2cnnn2)cc1C,0.6,i,1.0%
CC(=O)Nc1cc(NC(C)=O)c2nc(N)sc2c1,-0.51,i,-5.0%
COc1ccc(C(=O)COc2cccc(NC(=O)c3ccco3)c2)cc1,·,i,3.7%
C/C(=N/NC(=O)c1cc(C2CC2)[nH]n1)c1cccs1,·,1.8µM*,2.6%
CCCn1c(CN2CCN(C(=O)c3ccco3)CC2)nc2c1c(=O)n(C)c(=O)n2C,0.02,i,-2.2%
COC(=O)c1cc(OC)c(OC)cc1NC(=O)Nc1ccc(OC)cc1OC,-0.8,i,4.2%
Cc1ccc2c(c1)N(CC(=O)NCc1ccco1)C(=O)CO2,·,i,0.6%
O=C(NC1CC2CCC1C2)C1COc2ccccc2O1 (stereo not given),0.47,i,-5.4%
COc1ccccc1-n1c(=S)sc2c(=O)n(Cc3ccco3)c(SC)nc21,-0.93,i,-0.2%
O=C(NS(=O)(=O)c1ccccc1)c1ccccc1,·,i,-3.5%
CCOC(=O)CSc1nc2ccc(C)cc2cc1C#N,·,i,-3.4%
CCCn1c(SCC(=O)Nc2cc(C)on2)nc2c1c(=O)n(C)c(=O)n2C,0.99,i,-5.6%
COc1ccc(C(O)P(=O)(O)CCc2ccccc2)cc1 (stereo not given),0.22,i,-1.2%
O=C(Nc1cccc2nsnc12)c1ccc2c(c1)OCCO2,0.17,i,-5.1%
C=CCOC(=O)C1=C(C)NC(SCC(=O)OCC)=C(C#N)C1c1ccc(O)c(OC)c1 (stereo not given),0.73,i,-7.8%
COc1cc2c(cc1OC)CN(CC(=O)Nc1ccc(C)cc1)CC2,·,i,6.4%
CC(C)CNS(=O)(=O)c1cc(C(=O)N2CC(C)OC(C)C2)c(Cl)cc1Cl (stereo not given),·,i,1.1%
COc1cccc(CN(CC(=O)NCC2CCCO2)C(=O)CCC(=O)Nc2cc(C)on2)c1 (stereo not given),0.79,i,1.0%
CCOc1ccc(C(=O)CSc2nnc(N)s2)cc1,0.29,i,-1.9%
Cc1oc(C(C)(C)C)cc1C(=O)Nc1ccc2c(c1)OCCO2,-0.79,i,-2.1%
CSc1nc2sc3c(c2c(=O)n1C1CCCCC1)CCN(C)C3,0.3,i,2.0%
Cc1ccc(S(=O)(=O)C2(C(=O)O)CCCC2)cc1C,0.61,i,-2.7%
COc1ccc(Cc2nnc(SCc3c(C)noc3C)n2C2CCCCC2)cc1OC,0.28,i,1.5%
Cc1sc2nc(CN3CCOCC3)nc(NS(=O)(=O)c3ccccc3)c2c1C,·,i,1.7%
CCn1cc(C(=O)NCC2COc3ccccc3O2)c2cc(OC)c(OC)cc2c1=O (stereo not given),-0.19,i,2.4%
CCOC(=O)CNC(=O)CSc1nc2sc(C)c(C)c2c(=O)n1C,-2,i,2.6%
CCOC(=O)c1[nH]c2cc(OC)c(OC)cc2c1NC(=O)c1ccc2c(c1)OCO2,-1.6,i,1.5%
CCOC(=O)c1ccc(-c2c(C(=O)OCC)oc3cc(O)c(CC)cc3c2=O)o1,-0.62,i,2.9%
Cc1cc(C)c2nc(SCC(=O)Nc3ccc(S(=O)(=O)N4CCCC4)cc3)c(C)cc2c1,·,i,2.7%
Cc1cccc(C(=O)Nc2cc(=O)n(C)c(=O)n2C)c1,-0.41,i,5.1%
COc1cc2ccccc2cc1-c1nnc(COc2ccccc2)o1,-0.58,i,2.0%
COc1ccccc1Nc1nc(N)nc(CSc2nnc(C)s2)n1,2,i,8.0%
CCn1nnc(-c2ccccc2NC(=O)C(F)(F)F)n1,0.59,i,-1.1%
COc1ccc(C(C)=O)cc1COC(=O)c1ccc(S(=O)(=O)N2CCOCC2)cc1,-1.1,i,-1.9%
O=C(CCNS(=O)(=O)c1cccc2nsnc12)NC1CCN(Cc2ccccc2)CC1,-1.4,i,1.1%
O=C(NC1CCCCCC1)c1cc(S(=O)(=O)N2CCC3(CC2)OCCO3)ccc1F,0.39,i,-1.1%
CCCc1cc(C(=O)Nc2ccc(C)cc2)no1,0.58,i,-3.1%
O=C(Nc1ccc(OC(=O)c2cccnc2)cc1)c1cccnc1,0.67,i,-1.3%
Cc1cc(C)c2c(=O)[nH]c(SCC(=O)NCCc3ccccc3)nc2n1,·,i,-5.5%
COc1ccc(CCN(C)C(=O)N2CCOCC2)cc1OC,0.6,i,-0.7%
CC1(C)CC(=O)C(/C=N/c2ccccn2)=C(O)C1,-0.64,i,-5.8%
CCOCCCNC(=O)C1CCN(C(=O)Nc2ccc(Cl)cc2)CC1,-0.23,i,-0.9%
O=C(NCCN1CCc2ccccc2C1)C1CCN(S(=O)(=O)N2CCCCC2)CC1,0.02,i,7.4%
O=C(CCc1nc(-c2ccccc2)no1)NCc1ccco1,-1.1,i,-4.1%
CCOC(=O)N1CCC(NC(=O)CSCc2nc(-c3cccc(OC)c3)oc2C)CC1,1,i,-3.9%
Cc1cc(C)n(C(=O)CNc2ccc(C)c(C)c2)n1,·,i,0.7%
COc1ccc(F)cc1CN1CCN(c2cc(C)nc3c4c(C)cc(C)nc4nn23)CC1,2.5,i,3.1%
Cc1cc(C)c2c(CN3CCN(C)CC3)cc(=O)oc2c1,-0.59,i,4.1%
Cc1noc(N)c1C(=O)Nc1ccc(C(C)(C)C)cc1,·,i,-1.9%
CCOC(=O)C1CCN(C(=O)Cc2c(C(=O)O)[nH]c3ccccc23)CC1,-0.84,i,-6.4%
N/C(=N\OC(=O)Nc1ccc(Cl)cc1)c1ncc(C(F)(F)F)cc1Cl,·,i,-0.1%
CC(C)C1NC2(C(=O)c3ccccc3C2=O)C2C(=O)N(c3ccc(F)cc3)C(=O)C12 (stereo not given),-0.17,i,5.9%
CC(N1CCOC1=O)S(=O)(=O)c1ccccc1 (stereo not given),·,i,6.1%

Entries of single compounds, looked up by structure:
Record of `CCOC(=O)c1[nH]c2cc(OC)c(OC)cc2c1NC(=O)c1ccc2c(c1)OCO2` : WNV protease inh: -1.6; MT1-MMP reporter: i; Hsc70: 1.5%
Record of `O=C(NCCN1CCc2ccccc2C1)C1CCN(S(=O)(=O)N2CCCCC2)CC1` : WNV protease inh: 0.02; MT1-MMP reporter: i; Hsc70: 7.4%

New compounds follow
Structure,WNV protease inh,MT1-MMP reporter,Hsc70
Nc1c(-c2ccc(Cl)cc2)nnn1-c1ccccc1,-0.84,i,-2.2%
Cc1ccc(C(=O)CSc2ccccn2)cc1,1.6,i,40%
O=C(Cc1ccc(Cl)cc1)Nc1ccc(N2CCN(C(=O)c3ccco3)CC2)cc1,-1.9,i,-14%
Cc1nnc(SCCCn2c(N3CCN(c4ccccc4)CC3)nc3c2c(=O)[nH]c(=O)n3C)s1,-0.99,i,3.4%
COc1ccc(-c2cn3c(C)c(C(=O)N4CCCc5ccccc54)sc3n2)cc1,-1.1,i,-1.5%
COc1cc(OC)cc(-c2cc3nc(C)c(CCC(=O)NC(C)CCc4ccco4)c(C)n3n2)c1 (stereo not given),-0.7,i,-3.6%
Cc1ccc2[nH]c(=O)c(CN(Cc3cccs3)Cc3nnnn3Cc3ccccc3)cc2c1,0.24,i,-24%
Cc1ccc(CNC(=O)C2CCN(S(=O)(=O)c3cnc[nH]3)CC2)cc1,·,i,0.5%
O=C(Nc1nnc(-c2ccco2)o1)C1CCCCC1,-0.56,i,2.5%
Cn1nc(-c2ccc(C(=O)NCC3CCCO3)cc2)c2ccccc2c1=O (stereo not given),-0.08,i,-7.4%
CC(C)(C)Cc1nnc(NS(=O)(=O)c2ccc(F)cc2)s1,0.3,i,-6.8%
C=CCN1C(=O)/C(=C2\SC(N3CCOCC3)=NC2=O)c2cc(Br)ccc21,-0.38,i,3.2%
Cc1cc(=O)oc2cc(Oc3ncccn3)ccc12,0.86,i,1.2%
Cc1cccc(CN2CCN(C(c3ccccc3)c3ccc(Cl)cc3)CC2)c1 (stereo not given),0.35,i,-1.9%
Cc1ccc(CNC(=O)CSc2nc(N3CCCCC3)nc(N3CCCCC3)n2)cc1,-1.9,i,-0.7%
COc1ccc(Nc2nc(CC(C)=O)ns2)cc1,·,i,-5.5%
O=C(CCCn1c(=O)[nH]c2ccsc2c1=O)N1CCCCC1,-0.02,i,0.2%
Cc1cc(C)n2nc(-c3cccnc3)nc2n1,1.1,i,-0.1%
COc1ccc(-n2c(=O)cc(N3CCN(c4ccccc4OC)CC3)[nH]c2=O)cc1,1.1,i,-5.0%
O=C(CSc1nc(-c2ccccc2)cc(=O)[nH]1)N1CCc2ccccc21,-1.1,i,-3.4%
O=S(=O)(c1ccc2c(c1)OCCO2)N1CCC(O)(c2ccc(Cl)cc2)CC1,-0.53,i,-5.3%
CCC(c1nnc(SCCNCCO)n1CCN1CCOCC1)N(C)C (stereo not given),1.2,i,-2.2%
CC(OC(=O)c1nsc(Cl)c1Cl)C(=O)NCc1ccco1 (stereo not given),1.2,i,-2.8%
O=C(CCc1ccccc1)N1CCN(CCO)CC1,-1.1,i,-1.2%
Cc1cccc(NC(=O)CN2CCN(CC(=O)Nc3cccc(C)c3)CC2)c1,-1.1,i,3.3%
Cc1ccn2cc(CCNC(=O)c3ccc(Br)o3)nc2c1,-0.82,i,-4.1%
Cc1oc(C)c(C(N)=O)c1C(N)=O,-0.34,i,-7.2%
C(=C\c1ccccc1)/CN1CCN(Cc2ccc3c(c2)OCCO3)CC1,-0.44,i,-5.1%
CCCCC(=O)Nc1ccc2c(c1)OCCO2,1.6,i,-8.0%
Cc1nn(Cc2ccccc2Cl)c(C)c1C(=O)NCc1ccco1,0.18,i,-1.4%
CCCCOc1ccccc1NC(=O)CC1Nc2ccccc2NC1=O (stereo not given),0.63,i,134%
COc1ccccc1CN(CC(=O)NCc1ccc2c(c1)OCO2)C(=O)c1ccc2c(c1)OCCO2,·,i,0.2%
Cc1cc(NC(=O)Cn2nc(C(F)(F)F)c3c2CCC3)n(-c2ccccc2)n1,-1.2,i,2.0%
O=C(CN1C(=O)COc2ccc(Cl)cc21)Nc1ccc2c(c1)OCCO2,-1.2,i,-7.5%
CCN(CC)CCNC(=O)c1c(C)oc2cc(Br)c(OC)cc12,-0.0032,i,-2.1%
CS(=O)(=O)N(CC(N)=O)c1ccc(F)c(Cl)c1,0.07,i,0.2%
COCCn1nnnc1CN(CCc1ccc(OC)c(OC)c1)Cc1cc2ccc(C)cc2[nH]c1=O,-1.1,i,3.1%
CCOC(=O)N1CCN(C(=O)Cn2ncn3nc(-c4cccs4)cc3c2=O)CC1,0.33,i,-3.5%
Nc1nnnn1/N=C/c1cccc(OCc2ccccc2Cl)c1,·,i,-1.2%
CC(=O)N1CCN(CC(=O)Nc2c(Cl)cccc2Cl)CC1,-1,i,1.3%
Cc1cc(=O)oc(C)c1C(=O)NCCCN1CCN(c2ccc(F)cc2)CC1,0.5,i,-2.6%
Cn1nnc(NC(=O)COc2ccc(C3CCCCC3)cc2)n1,-0.11,i,-1.6%
Cc1csc(NC(=O)Cc2c[nH]c3ccccc23)n1,·,i,-7.0%
COc1c(C)cccc1C(=O)Nc1cc(Cl)ccc1N1CCOCC1,-0.01,i,5.2%
COc1ccc(Oc2coc3c(CN(C)C)c(O)ccc3c2=O)cc1,-0.32,i,13%
CC1CCc2c(sc3nc(C4CC4)nc(N4CCN(C(=O)c5ccco5)CC4)c23)C1 (stereo not given),·,i,-1.2%
CCNC(=O)NC(=O)C(C)OC(=O)c1cc(S(=O)(=O)N2CCCCCC2)ccc1OC (stereo not given),·,i,5.3%
COC(=O)C(C(=O)OC)N1C(=O)CCC1=O,1.2,i,-0.7%
COc1cccc(N2CCN(c3c4c(nc5ncnn35)CCC4)CC2)c1,0.01,i,5.8%
